# From PubChem
# A1 inhib = inhibitors of A1 | MEF A1-2A-BIM cells, caspase-Glo luminescence, 3 h; percent of clofoctol signal, DMSO as zero | 21,000 compounds, 0.51% hits | AID 2241 | caspase activation, % (test concentration not listed);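 active = most replicate scores above 10, or exactly half above 10 with mean activity above 10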;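 note: effector caspase 3 and 7 activity cleaving a DEVD luciferin substrate; 50 nL library stock added to about 30 µL; numbers are from one replicate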
# BJeLR viab HTS = BJeLR cell viability reduction; BJeLR fibroblasts viability, CellTiterGlo ATP luminescence, 48 h; HRASV12, hTERT and SV40 LT/ST transformed; viability loss activity score, % (test concentration not listed); 30,000 compounds, 0.64% hits; in the data active = viability loss activity score above about 50%; about a fifth of its hits are not listed in these tables;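 note: higher score means fewer live cells and less ATP luminescence; stock transfer was 50 or 100 nL into about 30 µL; 0% = vehicle wells and 100% = a reference killing control; one replicate is shown; the record names a cut of 85%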
# * = called active by the depositor; nt = not tested or not shown.
no.	compound	A1 inhib	BJeLR viab HTS
1	C[C@@H]1CN([C@H](C)CO)C(=O)c2cc(NS(=O)(=O)c3cn(C)cn3)ccc2O[C@H]1CN(C)S(=O)(=O)c1cccs1	-0.1	6.3
2	CCOC(=O)C1=C(C)NC(=S)NC1c1cccc(O)c1 (stereo not drawn)	-1.1	2.4
3	CCOC(=O)C(C)n1nc(C)c2sc3ccccc3c2c1=O (stereo not drawn)	-0.2	15
4	Clc1ccc(Sc2ccc(-c3ccccn3)s2)cc1	0.1	1.5
5	Cc1ccc(S(=O)(=O)Nc2ccc3c(c2)C(=O)N([C@@H](C)CO)C[C@@H](C)[C@@H](CN(C)S(C)(=O)=O)O3)cc1	0.2	-0.1
6	C[C@H]1CN([C@@H](C)CO)C(=O)c2cccc(NS(C)(=O)=O)c2O[C@@H]1CN(C)Cc1ccc(-c2ccccc2)cc1	nt	0.5
7	O=C(CCN1N=C(c2ccccc2)CCC1=O)Nc1cccc(C(F)(F)F)c1	0.2	-0.3
8	Cc1cc(Cc2c(O)nc(SCc3ccccc3)[nH]c2=O)ccc1OC(C)C	-0.2	0.0
9	CCC1Nc2ccccc2-c2nnc(SC)nc2O1 (stereo not drawn)	nt	-0.3
10	Cc1ccc(Cl)cc1N1CCN(C(=O)CN2C(=O)COc3ccc(C(C)(C)C)cc32)CC1	-0.4	-0.5
11	O=C(CSc1ccc(-c2cccs2)nn1)NCCc1ccccc1	-0.2	-4.3
12	O=c1cc(-c2ccccc2)nc(Cc2c(Cl)cccc2Cl)[nH]1	0.7	2.5
13	C[C@H](CO)N1C[C@H](C)[C@H](CN(C)Cc2ccc(Cl)c(Cl)c2)Oc2c(NS(=O)(=O)c3ccccc3)cccc2C1=O	nt	6.7
14	C[C@H]1CN([C@@H](C)CO)C(=O)c2cc(NS(=O)(=O)c3ccc(Cl)cc3)ccc2O[C@@H]1CN(C)Cc1ccc2c(c1)OCO2	-0.1	5.5
15	COc1cc(-c2cc(O)c(OC)c(OC)c2)cc(O)c1OC	-0.2	-2.7
16	O=C(/C=C/CCc1ccc2c(c1)OCO2)N1CCCCC1	-1.0	4.3
17	CC(=O)Nc1ccc(Nc2c3c(c(C#N)c4nc5ccccc5n24)CCCC3)cc1	nt	0.1
18	O=C(CSc1nc2ccccc2o1)OCC(=O)N1c2ccccc2Sc2ccccc21	1.5	-3.7
19	CC(C)NC(=O)Nc1cccc2c1O[C@H](CN(C)Cc1ccc3c(c1)OCO3)[C@@H](C)CN([C@@H](C)CO)C2=O	nt	-2.9
20	O=C(CCn1nc(-c2ccccc2)ccc1=O)N1CCOCC1	0.5	-3.4
21	CCc1ccc(NC(=O)c2cc3c(=O)n(C)c4ccccc4c3s2)cc1	nt	1.6
22	NS(=O)(=O)c1ccc(NC(=O)CN2C(=O)c3ccccc3C2=O)cc1	0.9	-6.1
23	N#CC(Nc1cc(C(F)(F)F)cc(C(F)(F)F)c1)c1ccccc1 (stereo not drawn)	nt	12
24	C[C@H]1CN([C@@H](C)CO)C(=O)c2cccc(NC(=O)Nc3ccc(C(F)(F)F)cc3)c2O[C@@H]1CN(C)Cc1ccc(C(F)(F)F)cc1	nt	6.4
25	c1ccc2c3c([nH]c2c1)[C@H]1C2CCC([C@@H]4CCCN[C@H]24)N1CC3 (stereo partly drawn)	0.5	-3.5
26	O=C(c1ccc2c(c1)OCCCO2)N1CCOCC1	1.3	0.3
27	C/C(=C\CC[C@@H](C)[C@H]1CC[C@@]2(C)C3CC[C@H]4C(C)(C)[C@@H](OC5OC(CO)C(OC6OC(CO)C(O)C(O)C6O)C(O)C5O)CC[C@@]45C[C@@]35CC(O)[C@]12C)C(=O)O (stereo partly drawn)	0.0	-0.3
28	Cc1noc(C)c1S(=O)(=O)Nc1cccc2c1O[C@@H](CN(C)S(C)(=O)=O)[C@@H](C)CN([C@H](C)CO)C2=O	nt	3.3
29	C[C@H]1CN([C@@H](C)CO)C(=O)c2cc(NC(=O)Nc3ccc4c(c3)OCO4)ccc2O[C@@H]1CN(C)CC1CCCCC1	0.1	-12
30	Cc1nc2ccccc2cc1C(N)=O	0.1	0.7
31	C[C@@H]1CN([C@@H](C)CO)C(=O)c2cccc(NC(=O)c3ccncc3)c2O[C@@H]1CN(C)S(=O)(=O)c1ccccc1	nt	6.1
32	COc1ccccc1OCC(=O)NC1CCCCC1	-0.5	1.2
33	C[C@H](CO)N1C[C@H](C)[C@@H](CN(C)Cc2ccc(Oc3ccccc3)cc2)Oc2ccc(N(C)C)cc2C1=O	0.2	-2.0
34	C[C@@H]1CN([C@H](C)CO)C(=O)c2cc(NC(=O)CCN3CCOCC3)ccc2O[C@@H]1CN(C)S(=O)(=O)c1cn(C)cn1	0.9	0.3
35	Cc1ccc(-c2csc3ncnc(NCCC(=O)O)c23)cc1	0.0	1.9
36	Cc1noc(C)c1NC(=O)Nc1ccc2c(c1)C(=O)N([C@H](C)CO)C[C@H](C)[C@@H](CN(C)S(C)(=O)=O)O2	-0.5	-2.9
37	O=C(NC1CCCCC1)N1c2ccccc2CCc2ccccc21	-0.4	-1.3
38	C[C@H]1CN([C@@H](C)CO)C(=O)c2cccc(NC(=O)C3CCOCC3)c2O[C@@H]1CN(C)Cc1ccncc1	nt	1.2
39	C[C@H](CO)N1C[C@H](C)[C@@H](CN(C)Cc2ccc3c(c2)OCO3)Oc2ccc(NC(=O)C3CC3)cc2C1=O	0.6	0.3
40	Cc1nnc(Sc2nc3ccc(Cl)cc3s2)n1-c1ccc2c(c1)OCCO2	nt	-1.2
41	COc1cc(OC)c(C(O)C(C)O)cc1OC (stereo not drawn)	-0.3	-11
42	C[C@H](CO)N1C[C@H](C)[C@H](CN(C)C(=O)Nc2cccc3ccccc23)Oc2ccc(NS(=O)(=O)c3ccc(F)cc3)cc2C1=O	0.5	-0.9
43	CC1=C(C(=O)O)N2C(=O)[C@@H](NC(=O)[C@H](N)c3ccccc3)[C@H]2SC1	-0.6	1.7
44	Cc1noc(C)c1S(=O)(=O)N(C)C[C@@H]1Oc2c(NC(=O)c3ccc(-c4nccs4)cc3)cccc2C(=O)N([C@H](C)CO)C[C@@H]1C	nt	-0.1
45	COC(=O)c1nn(-c2ccccc2)c2oc(=O)cc(C)c12	0.4	4.3
46	Cc1sc2nc3c4ccccc4c(NCCO)nn3c(=O)c2c1C	-0.9	-11
47	CCC(C(=O)N1CCCC1)n1c(C(=O)OC)cc2sccc21 (stereo not drawn)	-0.3	-6.4
48	NC(N)=Nc1nc(-c2ccccc2)c2ccccc2n1	0.0	8.4
49	COC(CN(C)C(=O)c1cc2c(Cl)nc3ccc(C)cc3c2s1)OC	nt	-9.4
50	C[C@H]1CN([C@@H](C)CO)C(=O)c2cccc(NC(=O)c3ccncc3)c2O[C@H]1CN(C)C(=O)NC1CCCCC1	nt	2.7
51	O=C(Nc1ccc(-c2nc3ccccc3o2)cc1)c1ccccc1Cl	-1.4	8.3
52	Cc1ccnc(Nc2nc3ccccc3o2)n1	nt	50*
53	CN(C)/C=C/C(=O)c1ccc2c(c1)CCO2	-1.9	1.2
54	Cc1cc(C(=O)NC(C)(C)C)on1	nt	-1.3
55	Cc1ccn2cc(CCNC(=O)C3CCCCC3)nc2c1	0.6	0.3
56	COc1ccc2ccc(=O)oc2c1C(OC(C)=O)C(=O)C(C)C (stereo not drawn)	1.2	-1.2
57	COc1ccc(N(CN2C(=O)c3ccccc3C2=O)C(=O)c2ccccc2)cc1	0.7	-0.5
58	COc1ccc(S(=O)(=O)N(C)C[C@@H]2Oc3c(NS(=O)(=O)c4ccc(F)cc4)cccc3C(=O)N([C@@H](C)CO)C[C@@H]2C)cc1	nt	2.0
59	C[C@H]1CN([C@@H](C)CO)C(=O)c2cc(NC(=O)C3CCCCC3)ccc2O[C@@H]1CN(C)C(=O)Nc1cccc2ccccc12	0.1	2.7
60	COc1ccc(NC(=O)N(C)C[C@H]2Oc3ccc(NC(=O)NC(C)C)cc3C(=O)N([C@@H](C)CO)C[C@H]2C)cc1	-0.6	-0.1

# Some of the entries so far, with one line to a screen.
50: C[C@H]1CN([C@@H](C)CO)C(=O)c2cccc(NC(=O)c3ccncc3)c2O[C@H]1CN(C)C(=O)NC1CCCCC1
51: O=C(Nc1ccc(-c2nc3ccccc3o2)cc1)c1ccccc1Cl
52: Cc1ccnc(Nc2nc3ccccc3o2)n1
53: CN(C)/C=C/C(=O)c1ccc2c(c1)CCO2
54: Cc1cc(C(=O)NC(C)(C)C)on1
55: Cc1ccn2cc(CCNC(=O)C3CCCCC3)nc2c1
56: COc1ccc2ccc(=O)oc2c1C(OC(C)=O)C(=O)C(C)C (stereo not drawn)
entry no.,50,51,52,53,54,55,56
A1 inhib,nt,-1.4,nt,-1.9,nt,0.6,1.2
BJeLR viab HTS,2.7,8.3,50*,1.2,-1.3,0.3,-1.2

# Exported with one line to a screen: entries from further up.
47: CCC(C(=O)N1CCCC1)n1c(C(=O)OC)cc2sccc21 (stereo not drawn)
48: NC(N)=Nc1nc(-c2ccccc2)c2ccccc2n1

Compound | 47 | 48
A1 inhib | -0.3 | 0.0
BJeLR viab HTS | -6.4 | 8.4

# Later entries:
no.	compound	A1 inhib	BJeLR viab HTS
61	CCC(C)NC(=O)c1nn2c(c1Cl)NC(c1ccc(OC)cc1)CC2C(F)(F)F (stereo not drawn)	1.1	-0.5
62	Cc1ccccc1S(=O)(=O)Cc1ccc(C(=O)NC(C)c2ccccc2)o1 (stereo not drawn)	nt	-1.4
63	CC(=O)OCC(=O)c1ccc2ccn(C(C)=O)c2c1	nt	-5.9
64	O=C(/C=C/c1ccccc1)Nc1ncnc2sc3c(c12)CCC3	-0.4	-0.8
65	CN(C(=O)c1cc(-c2ccc(Cl)c(Cl)c2)on1)c1ccccc1	nt	1.0
66	O=c1c2c3c(sc2ncn1/N=C/c1cc(Br)ccc1O)CCCC3	-0.7	-3.0
67	C[C@@H]1CN([C@H](C)CO)C(=O)c2cc(NC(=O)CCCN(C)C)ccc2O[C@@H]1CN(C)Cc1ccc2c(c1)OCO2	-0.5	1.8
68	COc1ccc(CN(C)C[C@H]2Oc3ccc(NS(=O)(=O)c4cccs4)cc3C(=O)N([C@H](C)CO)C[C@H]2C)cc1	0.3	1.5
69	O=C(NCC1CC1)c1ccccc1NS(=O)(=O)c1cccc2nonc12	0.3	12
70	C=CCN(C(=O)CSc1nc2c(sc3ccccc32)c(=O)n1Cc1cccnc1)c1ccccc1	-0.5	-5.4
71	COc1ccccc1NC(=O)/C=C\c1ccco1	-5.0	5.4
72	COc1ccc(S(=O)(=O)Nc2cccc3c2O[C@H](CN(C)CC2CC2)[C@@H](C)CN([C@H](C)CO)C3=O)cc1	nt	3.2
73	O=C(COC(=O)c1ccc(N2C(=O)c3ccccc3C2=O)cc1)c1ccccc1	0.3	2.7
74	Cc1ccc(-c2csc(COC(=O)C(C)(C)C)n2)cc1	-1.8	3.2
75	CC(C)NC(=O)N(C)C[C@H]1Oc2ccc(NS(=O)(=O)c3cn(C)cn3)cc2C(=O)N([C@@H](C)CO)C[C@@H]1C	-0.5	3.7
76	CC(Oc1ccccc1)C(=O)NC1CCSC1=O (stereo not drawn)	0.5	-0.7
77	C[C@H](CO)N1C[C@H](C)[C@@H](CN(C)S(=O)(=O)c2cn(C)cn2)Oc2ccc(NC(=O)c3ccncc3)cc2C1=O	0.2	3.6
78	Cc1noc(C)c1NC(=O)Nc1cccc2c1O[C@H](CN(C)C(=O)Nc1cccc3ccccc13)[C@@H](C)CN([C@@H](C)CO)C2=O	nt	-3.0
79	C=CCn1c(C(CC)CC(C)(C)O)n[nH]c1=S (stereo not drawn)	0.8	0.7
80	COC(=O)C(C)Sc1nnc(-c2ccc(Br)cc2)o1 (stereo not drawn)	-3.9	6.2
81	Cc1noc(C)c1NC(=O)N(C)C[C@H]1Oc2ccc(NS(=O)(=O)c3ccccc3)cc2C(=O)N([C@H](C)CO)C[C@@H]1C	0.3	-1.7
82	C=CCNC(=O)c1ccc(C(F)(F)F)nc1C	nt	-2.7
83	c1ccn2c(SCc3ccc4c(c3)OCCO4)nnc2c1	-1.4	18
84	Cc1noc(C)c1S(=O)(=O)N(C)C[C@@H]1Oc2c(cccc2N(C)C)C(=O)N([C@@H](C)CO)C[C@H]1C	nt	-0.1
85	C[C@H](CO)N1C[C@H](C)[C@@H](CN(C)Cc2ccc(Oc3ccccc3)cc2)Oc2c(NC(=O)c3ccc(-c4nccs4)cc3)cccc2C1=O	nt	-1.0
86	CCOC(=O)CNc1nnc(-c2ccccc2)c(-c2ccccc2)c1C#N	0.4	-2.3
87	C[C@@H]1CN([C@@H](C)CO)C(=O)c2cc(NC(=O)Nc3cccc4ccccc34)ccc2O[C@H]1CN(C)CC1CCCCC1	0.5	-3.7
88	CC(C)c1nc2ccccc2n1Cc1ccccc1Cl	0.2	5.5
89	N#CC1=NN(c2ccccc2)C(c2ccccc2)CC1=O (stereo not drawn)	-0.2	1.3
90	CCC(Sc1nc2ccsc2c(=O)n1NC(=O)c1ccccc1)C(=O)Nc1cccc(C)c1 (stereo not drawn)	0.3	0.3
91	Cn1c(O)c(C=Nc2ccccc2)oc1=S	-1.1	-2.3
92	C[C@@H]1CN([C@@H](C)CO)C(=O)c2cc(NC(=O)C3CC3)ccc2O[C@@H]1CN(C)Cc1ccc(C(F)(F)F)cc1	-1.0	3.2
93	CC(=O)Nc1cc2ccccc2oc1=O	-0.2	-4.9
94	C[C@@H]1CN([C@H](C)CO)C(=O)c2cccc(NC(=O)NC3CCCCC3)c2O[C@@H]1CN(C)Cc1ccncc1	nt	-6.7
95	CCN(CC)c1cc(C)c2cc(NC(=O)/C(C)=C\c3ccccc3)ccc2n1	nt	4.4
96	CNC(=S)N(Cc1ccccc1)Cc1ccccc1	0.8	-4.7

# The list is partial, so the mix of outcomes need not match the whole.
